# RGS7-Gao: RGS7-Galphao binding modulators, primary screen, biochemical, multiplexed bead flow cytometry. Guanine nucleotide-binding protein G(o) subunit alpha (Homo sapiens), P09471. actives lie on both sides. binding response (% of control), % at 10 µM. actives 0.35% (n = 220,000). AID 1439, 2008; in the data active = binding response below about 49% or above about 150%; inconclusive = no clear call, values can overlap the other calls; inactive = in between;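 note: fluorescent Galphao held in activated GDP-AlF4 state binding bead-coupled RGS7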
# Target sequence (P09471 whole entry, looked up): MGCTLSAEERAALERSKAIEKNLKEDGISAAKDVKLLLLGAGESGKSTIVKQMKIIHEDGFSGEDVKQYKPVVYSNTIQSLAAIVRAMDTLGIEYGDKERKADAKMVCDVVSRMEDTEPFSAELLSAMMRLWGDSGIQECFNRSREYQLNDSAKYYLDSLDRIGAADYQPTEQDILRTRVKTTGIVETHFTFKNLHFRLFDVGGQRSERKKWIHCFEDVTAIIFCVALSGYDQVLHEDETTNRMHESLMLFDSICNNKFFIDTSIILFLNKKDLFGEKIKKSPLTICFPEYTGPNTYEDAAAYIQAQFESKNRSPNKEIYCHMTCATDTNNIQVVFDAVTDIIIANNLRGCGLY
# Pf gametocyte: late stage P. falciparum gametocyte viability inhibitors, primary screen, ATP luminescence, HTS. P. falciparum stage V gametocytes, 24 h. inhibition, % at 10.9 µM. actives 0.065% (n = 150,000). AID 743093, 2013;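 active = inhibition above the mean plus 3 SD of compounds within the control limits, set per campaign, cut at about 38% in these data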;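 note: 0% = DMSO wells and 100% = medium only without gametocytes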
# RGS4-Gao reg: modulators of RGS4 binding to Galphao, primary screen, biochemical, multiplexed bead flow cytometry; actives lie on both sides; binding response (% of control), % at 10 µM; AID 1415, 2008; Guanine nucleotide-binding protein G(o) subunit alpha (Homo sapiens), P09471; actives 0.33% (n = 220,000); in the data active = binding response below about 49% or above about 150%; inactive = in between;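 note: fluorescent Galphao activated with aluminum fluoride binding bead-coupled RGS4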
# Avidin bead fluor: green autofluorescence of compounds with avidin beads – biophysical, 488/530 nm, flow cytometry, artefact control, profiling panel | compound fluorescence 488/530 nm; hits give high values | fluorescence (KMESF) at 10 µM | actives 0.38% (n = 220,000) | AID 1775, 2009; in the data active = fluorescence above about 47; note: inactives centre near 10
# ABCB1 inh: ABCB1 efflux pump inhibitors, primary screen, cell-based, multiplex, flow cytometry, ABCG2 counter-screen; actives 0.067% (n = 190,000); inhibition, % at 6.6 µM; CCRF-Adr cells, JC-1 efflux; ATP-dependent translocase ABCB1 (Homo sapiens), P08183; in the data active = inhibition above about 40%;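 note: 0% = vehicle and 100% = reference inhibitor; higher value means more JC-1 retained so stronger ABCB1 efflux block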
# ABCG2 inh: ABCG2 efflux pump inhibitors, primary screen, multiplex with ABCB1, IgMXP3 cells, flow cytometry; inhibition, % at 6.6 µM; AID 1325, 2008; actives 0.1% (n = 190,000); Broad substrate specificity ATP-binding cassette transporter ABCG2 (Homo sapiens), Q9UNQ0; JC-1 efflux;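 active = inhibition above 80%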;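 note: 0% = DMSO and 100% = nicardipine control wells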
# Target sequence (Q9UNQ0 whole entry, looked up): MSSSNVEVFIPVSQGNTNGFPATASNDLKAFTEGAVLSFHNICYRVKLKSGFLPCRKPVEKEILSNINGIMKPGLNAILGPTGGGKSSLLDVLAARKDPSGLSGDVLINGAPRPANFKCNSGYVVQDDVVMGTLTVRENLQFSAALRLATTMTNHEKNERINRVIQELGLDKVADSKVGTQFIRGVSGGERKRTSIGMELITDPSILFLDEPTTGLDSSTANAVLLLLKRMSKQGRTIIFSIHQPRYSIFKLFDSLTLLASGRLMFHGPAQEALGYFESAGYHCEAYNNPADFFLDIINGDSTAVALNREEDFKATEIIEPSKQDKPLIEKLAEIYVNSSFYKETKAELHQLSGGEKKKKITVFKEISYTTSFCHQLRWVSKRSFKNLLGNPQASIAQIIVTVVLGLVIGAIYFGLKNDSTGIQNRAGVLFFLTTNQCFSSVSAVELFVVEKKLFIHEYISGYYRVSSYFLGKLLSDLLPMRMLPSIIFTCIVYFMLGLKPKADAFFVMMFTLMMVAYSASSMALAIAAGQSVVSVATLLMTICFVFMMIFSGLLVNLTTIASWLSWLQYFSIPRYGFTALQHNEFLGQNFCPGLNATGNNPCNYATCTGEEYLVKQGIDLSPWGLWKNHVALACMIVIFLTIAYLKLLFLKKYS
#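 material = IgMXP3 (ABCG2) plus far-red-tagged CCRF-Adr (ABCB1) cells | amount = 3 million cells/mL, equal mix of both lines | also added = JC-1 transporter substrate | dosing = one concentration, 6.6 µM final | schedule = 10 min at 25 °C | measured by = flow cytometric JC-1 green MFI at 530 nm | read-out basis = percent efflux inhibition, scaled nicardipine 100% to DMSO 0%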
# RGS8-Gao reg: RGS8-Galphao binding modulators, primary screen, biochemical, multiplexed bead flow cytometry; Guanine nucleotide-binding protein G(o) subunit alpha (Homo sapiens), P09471; actives lie on both sides; response (percent of control binding), % at 10 µM; actives 0.34% (n = 220,000); AID 1423, 2008; in the data active = response below about 60% or above about 140%; inactive = in between;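 note: Galphao activated as the GDP aluminium fluoride complex binding bead-coupled RGS8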
# GSH fluor: compound fluorescence on glutathione beads, profiling panel, artefact control, biophysical, 488/530 nm, flow cytometry; GSH beads flow cytometry, compound fluorescence 488/530 nm; hits give high values; fluorescence (KMESF) at 10 µM; actives 0.25% (n = 190,000); AID 1776, 2009; in the data active = fluorescence above about 89;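 note: glutathione beads carrying GST-tagged Bcl family fusion proteins plus one bare bead set; values are compound well signal with DMSO vehicle wells as background; inactives centre near 16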
# The depositor's hits bear a star; u = inconclusive; x = no result given. These rows are one share of the data; rates above refer to the full screens.
SMILES,RGS7-Gao,Pf gametocyte,RGS4-Gao reg,Avidin bead fluor,ABCB1 inh,ABCG2 inh,RGS8-Gao reg,GSH fluor
CCOC(=O)c1cc(C#N)c(N2CCN(c3ccccn3)CC2)nc1-c1ccccc1,u,x,100,8,3.1,22,100,15
O=C(CSc1ccc2c(c1)OCCO2)Nc1ccc(Cl)cn1,99,-12,97,6,0.1,1,94,22
CCOC(=O)NC(Nc1sc2c(c1C(N)=O)CCCC2)(C(=O)OCC)C(F)(F)F (stereo not given),106,-13,98,3,x,x,96,16
CCOCCCNC(=O)CN1CCN(c2ccc(F)cc2)CC1,101,-24,99,18,0.8,3,101,24
CCOCC(=O)Nc1cc(C(=O)Nc2cc(C)cc(C)c2)ccc1Cl,94,x,95,10,-0.1,0,97,16
Cn1c(NCc2ccco2)nc2c1c(=O)n(Cc1ccc(Cl)cc1)c(=O)n2C,95,x,97,18,2.0,36,97,21
Cn1c(OCc2cccnc2)nc2c1c(=O)n(Cc1ccccc1)c(=O)n2C,103,-1,101,1,0.5,1,101,32
CCN1C(=O)CSc2ccc(C(=O)NC3CCCCC3)cc21,101,x,98,24,1.8,49,103,19
O=C(O)c1cc2ccc3ccccc3c2oc1=O,x,x,x,x,0.1,2,x,19
CCOC(=O)C(NC(=O)CC)(Nc1sc2c(c1C(=O)OC)CCN(C)C2)C(F)(F)F (stereo not given),103,11,102,30,1.6,7,103,24
COc1ccc(/C=C2/Sc3ccc(C(=O)N4CCc5ccccc5C4)cc3NC2=O)cc1,97,x,101,15,1.9,10,103,23
COc1ccc(N=Cc2oc3ccc4ccccc4c3c2O)cc1,101,12,97,22,-0.2,0,93,7

# Limited to ABCB1 inh, ABCG2 inh and GSH fluor, for some of the entries so far:
smiles | ABCB1 inh | ABCG2 inh | GSH fluor
CCOCC(=O)Nc1cc(C(=O)Nc2cc(C)cc(C)c2)ccc1Cl | -0.1 | 0 | 16
Cn1c(NCc2ccco2)nc2c1c(=O)n(Cc1ccc(Cl)cc1)c(=O)n2C | 2.0 | 36 | 21
Cn1c(OCc2cccnc2)nc2c1c(=O)n(Cc1ccccc1)c(=O)n2C | 0.5 | 1 | 32

# (cont.)
SMILES,RGS7-Gao,Pf gametocyte,RGS4-Gao reg,Avidin bead fluor,ABCB1 inh,ABCG2 inh,RGS8-Gao reg,GSH fluor
COc1ccc(F)cc1C(=O)C1CCCN(Cc2ccc(Sc3nncn3C)o2)C1 (stereo not given),99,x,100,9,0.3,0,106,14
CC(C)(C)N(Cc1ccccc1)C(=O)c1ccc2c(c1)OCCO2,96,x,98,12,2.9,16,98,23
CCOCCCNC(=O)c1ccc2c(=O)n(CCCOCC)c(=S)[nH]c2c1,103,15,102,17,-0.6,20,106,13
O=S(=O)(c1ccc(Br)cc1)N1CCn2c(nc3ccccc32)C1,100,x,104,8,-1.0,-1,102,16
O=C(O)CCN1Cc2ccccc2C1=O,101,x,104,9,0.9,4,102,9
O=C(Nc1ccc2oc(-c3ccc(Cl)c(Cl)c3)nc2c1)c1ncn[nH]1,100,x,103,6,0.0,1,102,57
COc1ccc(C(C#N)Nc2ccc(C)cc2)cc1 (stereo not given),102,-8,103,19,-1.0,28,99,35
CC1=C(C(=O)Nc2cccnc2)C(c2ccccn2)n2nnnc2N1 (stereo not given),108,9,109,8,0.3,1,103,58
CCOc1ccc(N=C2NC(=O)S/C2=C\c2ccc(OC)cc2)cc1,97,x,92,2,0.1,1,100,12
Cc1nc(NC(=O)c2cc3c(C)nn(-c4ccccc4)c3s2)sc1C(=O)Nc1ccccc1,95,5,100,11,-0.1,0,96,11
c1ccc(N(c2ccccc2)c2nc(N3CCCC3)nc(-n3ccnc3)n2)cc1,101,-24,103,9,1.2,9,103,45
CCCCc1ccc(NC(=O)CC(C)C)cc1,102,-6,102,21,0.5,5,107,10

# Reprinted at random: 7 compounds from above, in no set order.
SMILES,RGS7-Gao,Pf gametocyte,RGS4-Gao reg,Avidin bead fluor,ABCB1 inh,ABCG2 inh,RGS8-Gao reg,GSH fluor
CC1=C(C(=O)Nc2cccnc2)C(c2ccccn2)n2nnnc2N1 (stereo not given),108,9,109,8,0.3,1,103,58
COc1ccc(C(C#N)Nc2ccc(C)cc2)cc1 (stereo not given),102,-8,103,19,-1.0,28,99,35
CC(C)(C)N(Cc1ccccc1)C(=O)c1ccc2c(c1)OCCO2,96,x,98,12,2.9,16,98,23
O=C(Nc1ccc2oc(-c3ccc(Cl)c(Cl)c3)nc2c1)c1ncn[nH]1,100,x,103,6,0.0,1,102,57
O=C(O)CCN1Cc2ccccc2C1=O,101,x,104,9,0.9,4,102,9
COc1ccc(F)cc1C(=O)C1CCCN(Cc2ccc(Sc3nncn3C)o2)C1 (stereo not given),99,x,100,9,0.3,0,106,14
CCOc1ccc(N=C2NC(=O)S/C2=C\c2ccc(OC)cc2)cc1,97,x,92,2,0.1,1,100,12

# (further entries)
SMILES,RGS7-Gao,Pf gametocyte,RGS4-Gao reg,Avidin bead fluor,ABCB1 inh,ABCG2 inh,RGS8-Gao reg,GSH fluor
Cc1ccc(-c2nc3ncccc3o2)cc1NC(=O)Cc1ccc(Cl)cc1,102,x,100,8,0.6,9,107,65
CC(=O)Nc1ccc(Nc2ncc([N+](=O)[O-])c(Nc3ccc(NC(C)=O)cc3)n2)cc1,97,x,95,16,-0.2,0,99,11
C/C(=N\NC(=O)c1ccc(NS(=O)(=O)c2cccs2)cc1)c1ccccc1,99,1,101,11,-0.8,-3,102,7
O=C(Oc1oc(-c2ccco2)nc1C=Nc1ccccc1)c1ccco1,71,x,68,5,-0.1,0,81,33
O=C1c2cccnc2C(Nc2ccc(Br)cc2Br)N1Cc1cccs1 (stereo not given),u,x,99,8,1.5,2,101,12
Cc1c(NC(=S)Nc2ccccc2C(F)(F)F)cccc1[N+](=O)[O-],98,-10,100,12,-0.3,0,101,21
Clc1nc2ccccc2cc1/C=N/Nc1nc2ccccc2[nH]1,92,-5,88,4,0.0,0,98,-1
NS(=O)(=O)c1ccc(N/N=C/c2ccc3c(c2)OCO3)c([N+](=O)[O-])c1,97,20,103,10,0.7,7,101,14
COCCCn1c(=N)c(C(=O)NCc2ccc3c(c2)OCO3)cc2c(=O)n3ccccc3nc21,102,x,104,10,-0.1,1,101,9
CN1CCN(C(=O)CNc2ccc(C(F)(F)F)cc2[N+](=O)[O-])CC1,101,x,106,12,1.4,12,103,10
O=C(CSc1nnc(-c2ccco2)n1Cc1ccccc1)NC(=O)NCc1ccccc1,93,x,89,14,0.7,2,100,13
Cn1c(SCC(=O)NCc2ccco2)nnc1-c1ccc(S(=O)(=O)N2CCOCC2)cc1,96,x,94,15,0.0,0,99,7
COCCn1c(=NC(=O)CSC(C)=O)sc2cc(OC)ccc21,101,x,99,24,2.0,35,102,14
C=CCN(CC=C)C(=O)Nc1ccc2nc(C)sc2c1,102,6,100,6,x,-1,99,11
N#CCCSCc1ccc2oc(C(=O)O)cc2c1,99,x,102,15,0.8,3,100,41
CCCCCNCc1cccc(Br)c1,102,x,100,11,0.2,0,103,12
CCSc1nnc2c(n1)[nH]c1c(C)cccc12,100,x,101,10,0.7,3,103,30
O=C1CCC/C(=N/NC(=O)c2ccc(NS(=O)(=O)c3cccs3)cc2)C1,102,6,106,10,-0.7,-2,100,15
CCN1CCCC1CNS(=O)(=O)c1cccc(C(F)(F)F)c1 (stereo not given),101,-21,101,11,0.0,-2,99,13
COc1ccc(-c2ccc(-c3nnc(-c4cc(OC)ccc4OC)o3)cc2)cc1,101,6,103,21,1.0,6,102,13
COc1ccc(-c2nc(C(N)=O)c3[nH]c(=O)n(-c4cccc(Cl)c4)c3n2)cc1OC,103,x,103,7,0.9,4,100,9
Cc1ccc(-c2nn(-c3ccccc3)cc2/C=N/NC(=O)c2ccncc2)o1,100,4,100,19,-0.4,0,98,7
CCOC(=O)Cc1csc(NC(=O)c2sc3nc4cc(C)ccc4cc3c2N)n1,103,-11,98,13,-1.0,-8,103,12
CCOc1ccc2c(c1)/C(=C(\C(Cl)=C(Cl)Cl)[N+](=O)[O-])N2,103,-8,102,9,-0.4,-1,99,10
COc1ccc(C2C(C(=O)OCC3CCCO3)=C(C)NC3=C2C(=O)CC(c2ccco2)C3)cc1O (stereo not given),99,x,98,x,0.1,3,101,9
CCOc1cc(S(=O)(=O)NCc2ccc3c(c2)OCO3)c(C)cc1C,104,-15,101,16,0.5,1,100,14
CN(Cc1ccccc1)C(=O)c1ccc2c(c1)OCCO2,102,x,104,6,-0.1,0,104,7
Cc1cccc(-n2c(=O)[nH]c3c(C(N)=O)nc(-c4ccccc4Cl)nc32)c1,99,x,99,4,0.9,10,98,14
CCC(=O)N(CCC(Cc1ccccc1)c1ccco1)Cc1ccco1 (stereo not given),101,6,97,8,-0.3,-1,106,15
Cc1nc(-c2cccnc2)sc1C(N)=O,98,-36,101,9,0.5,3,100,13
CN1CCNC(=O)C1CC(=O)NCC1(c2ccccc2)CCCCC1 (stereo not given),101,18,101,10,0.5,6,107,11
CC(CCc1ccccc1)NC(=O)COC(=O)C1CCC(C(C)(C)C)CC1 (stereo not given),102,-11,101,23,0.1,-5,97,9
COc1ccc(/C=C2\Sc3ccc(C(=O)N4CCc5ccccc5C4)cc3N(C)C2=O)cc1,99,x,100,16,2.4,2,104,23
Cc1ccc(NC2=C(Cl)C(=O)OC2OC(=O)c2ccccc2C)cc1 (stereo not given),122,-7,100,4,1.4,12,103,21
CCCCc1nc2ccccc2c(NC(=O)CN2CCCC2)c1CCC,99,x,101,5,2.0,3,101,17
C/C(=N/NC(=O)c1cccc(C)c1)c1c(O)cc(C)oc1=O,97,-9,89,4,1.5,6,85,19
Cc1onc(-c2ccccc2Cl)c1C(=O)NCc1ccco1,87,9,79,24,0.2,2,90,22
CCN1CCCC1CNS(=O)(=O)c1ccc(C(=O)Nc2ccccc2)cc1 (stereo not given),105,-8,104,10,1.3,14,104,19
Cc1nc2cc(F)ccc2n1C1CCN(C(=O)c2ccc(F)cc2F)CC1,102,x,101,14,2.1,9,102,14
CC(CC(=O)c1cccs1)CC(=O)c1cccs1,98,-7,103,13,0.1,1,100,39
Cc1ccc(/C=C(\C#N)C(=O)Nc2cccc3ncccc23)o1,89,-11,93,8,0.8,12,94,5
COc1ccccc1NC(=O)C1=C(C)Nc2nnnn2C1c1ccncc1 (stereo not given),99,3,103,12,-0.2,0,98,17
COC(=O)c1ccc(COC(=O)c2c(C)nn(Cc3ccccc3Cl)c2Cl)o1,98,18,96,8,1.6,41,91,26
O=C(NCCc1ccccc1)Nc1ccc(Cl)cc1,97,-5,98,15,-0.4,2,102,13
COc1ccc(NC(=O)CC2C(=O)N(c3ccccc3)C(=O)N2Cc2ccco2)cc1 (stereo not given),97,4,95,5,0.4,1,89,15
COc1ccc(S(=O)(=O)N(CCCN2CCOCC2)Cc2ccc(OC)c(OC)c2)cc1,103,6,102,14,1.7,3,98,20
COC(=O)c1cc2ccsc2n1Cc1cc(=O)n2ccccc2n1,101,x,101,2,0.7,1,100,46
Cc1ccc(-c2nnc(SCC(=O)Nc3nc4c(s3)CCCC4)n2C)cc1,101,x,105,17,1.1,5,103,13
Cc1cc(NC(=O)CSc2nc3sc4c(c3c(=O)n2C)CCCC4)no1,97,-4,98,15,-2.0,4,99,24
CCc1cc2c(NC(C(=O)O)C(C)C)ncnc2s1 (stereo not given),102,x,101,15,-0.5,0,98,26
COC(=O)CN1C(=S)N(c2ccccc2)C(=O)C1CC(=O)Nc1ccc(Cl)cc1 (stereo not given),97,-14,97,15,0.0,9,102,3
